Screening results (PubChem BioAssay)
Rango release inh: inhibitors of RanGTP-induced Rango-importin beta complex dissociation; Biochemical FRET Rango-importin beta, RanGTP-induced dissociation; AID 540253; 340,000 compounds, 0.071% hits; Potency, µM (series often up to 46.1 µM), without a hit: top-dose activity change, negative = inhibition; active means falling FRET ratio curve, often poorly fitted, with flat reads before Ran was added; inconclusive means other falling curves, or compound fluorescence or quenching; inactive means flat or rising ratio curve;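 further: potency means the concentration at half of the fitted maximal effect; % of control where 0% means no effect; nearly all actives have a fitted effect of over 45% in size; -100% = wells without RanGTP and RCC1; the record marks most hits as doubtful in a second field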
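Rango (0.1 uM)–importin beta (0.25 uM) complex; RanGTP-RCC1 trigger; 45 min RT; CFP/YFP FRET read.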
Rango complex inh: inhibitors of Rango-importin beta complex formation. Potency, µM (top dose mostly 92.2 µM), inactives show at the top dose inhibition of complex formation. AID 540263. Rango CFP/YFP FRET sensor + importin beta, 45 min. 340,000 compounds, 0.031% hits; active = rising FRET ratio curve, often small or poorly fitted; inconclusive = mostly compound fluorescence or quenching in the first reads; inactive = flat curves in all reads;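 further: potency means the concentration at half of the fitted maximal effect; 0% = DMSO wells and 100% = buffer wells lacking importin beta; nearly all actives have a fitted effect of over 15% in size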
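Inhibition scored from the CFP 486 nm/YFP 530 nm FRET ratio 45 min after adding 0.125 microM importin beta to 50 nM Rango biosensor preincubated 5 min with compound (room temperature, PBS with DTT, Tween-20, BSA). No-importin wells as positive control.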
miR-21 FLuc: miR-21 reporter, rising signal | HeLa miR-21 FLuc reporter, luciferase, 48 h | Potency, µM (titrated, usually from 38.3 µM), for inactives: top-dose reporter change, positive = more light | 340,000 tested, under 10 active | AID 2288; active = well fitted rising curve with a large enough effect; inconclusive = small, poorly fitted or top-dose-only effect; inactive = no such curve, though single readings can be large or run the other way;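 further: % of control where 0% means no effect; miR-21 action dims this reporter so a rising signal means less miR-21 action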
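Luminescence from a firefly luciferase reporter carrying a miR-21 binding site downstream, stably expressed under a CMV promoter in HeLa cells that make miR-21 endogenously, reports miRNA modulation after 48 h compound exposure up to approximately 40uM final.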
GLA inh pH 4.5: inhibitors of human alpha-galactosidase A at pH 4.5; 230,000 tested, under 10 active; P06280; AID 1467; purified enzyme, 4-MU-alpha-Gal fluorescence, pH 4.5; activity change, negative = inhibition, % at 105 µM; inconclusive = small, poorly fitted or top-dose-only inhibition, or a rising curve; inactive = flat fitted curve, though single readings scatter; no compound was filed as active;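 further: 0% = full activity with enzyme and -100% = basal without enzyme; dose as in the result columns while the protocol names 77 µM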
Target sequence (P06280 whole entry, looked up): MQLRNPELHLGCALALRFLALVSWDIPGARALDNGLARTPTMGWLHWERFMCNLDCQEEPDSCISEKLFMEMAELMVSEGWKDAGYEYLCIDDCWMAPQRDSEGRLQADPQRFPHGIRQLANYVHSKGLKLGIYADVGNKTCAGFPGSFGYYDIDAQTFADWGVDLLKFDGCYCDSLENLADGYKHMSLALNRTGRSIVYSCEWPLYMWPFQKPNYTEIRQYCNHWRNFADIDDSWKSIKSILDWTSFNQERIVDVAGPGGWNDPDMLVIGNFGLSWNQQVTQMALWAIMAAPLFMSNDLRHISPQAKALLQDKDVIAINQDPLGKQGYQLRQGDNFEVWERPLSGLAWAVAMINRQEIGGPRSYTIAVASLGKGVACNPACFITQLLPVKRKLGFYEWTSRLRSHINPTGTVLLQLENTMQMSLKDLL
An asterisk follows results filed as active; ? = inconclusive; / = not tested or not shown.

SMILES	Rango release inh	Rango complex inh	miR-21 FLuc	GLA inh pH 4.5
CCCN1C(=O)c2cccc3c(N4CCCCC4)ccc(c23)C1=O	?	?	-9%	-2
COc1cc(CNn2c(C)n[nH]c2=S)cc(Cl)c1OCc1ccc(F)cc1	-7%	-5.0%	10%	2
Cc1cccc(C)c1NC(=O)C1CCCN(CCCc2ccccc2)C1 (stereo not drawn)	-8%	-2.9%	0%	2
O=C(O)CSc1nnc(Cc2ccccc2)n1Cc1ccccc1	-15%	?	-5%	-7
O=C(NCCCN1CCCC1=O)c1cccnc1	10%	-2.4%	-5%	-2
CC1CC(=O)Nc2ccccc2N1C(=O)Cn1cnc2ccccc2c1=O (stereo not drawn)	-3%	2.2%	/	/
CC[C@]12c3[nH]c4ccc(Cl)cc4c3CCN1C(=O)[C@@H](CC(=O)NCC13CC4CC(CC(C4)C1)C3)C[C@@H]2C(=O)N1CCN(C(=O)c2ccco2)CC1	15%	?	/	/
Cc1ccc(NC(=O)c2cc(S(=O)(=O)N3CCC4(CC3)OCCO4)ccc2F)cc1	5%	-1.2%	1%	-6
Cn1c(=O)cc(OCCCC(=O)Nc2cccnc2)c2ccccc21	1%	?	-6%	4
O=C(O)CNC(=O)c1ccc(Oc2c(F)c(F)c(Oc3ccc(C(=O)NCC(=O)O)cc3)c(F)c2F)cc1	-3%	-0.1%	0%	/
Cc1nn(-c2ccccc2)c2sc(C(=O)NC3CC3)cc12	17%	0.0%	-42%	-20
CC1CCCN(S(=O)(=O)c2ccc(NC(=O)Cc3ccc(S(=O)(=O)N4CCOCC4)s3)cc2)C1 (stereo not drawn)	-14%	-0.1%	/	/
Cc1cc(N2CCC(C(=O)Nc3ccc(F)cc3)CC2)nc(-c2ccccc2)n1	6%	-6.3%	4%	-9
COCCCNC(=O)c1ccccc1SC	4%	3.8%	-1%	0
COCCC(=O)N1CCC(Oc2ccc(C(=O)N(C)Cc3cc(C)no3)cc2)CC1	-2%	1.4%	-5%	/
COc1ccc(CCNC(=S)Nc2ccccc2)cc1	-3%	-1.2%	2%	-2
CC(=O)NC(Cc1ccccc1)C(=O)OCC(=O)c1ccccc1 (stereo not drawn)	8%	1.4%	2%	/
CC1Cc2ccccc2N1S(=O)(=O)c1cccc(C(=O)c2nccn2C)c1 (stereo not drawn)	1%	?	1%	-3
O=S(=O)(c1ccccc1)N1CCC2(CC1)OCCN2S(=O)(=O)c1cccs1	-9%	-2.2%	/	/
Clc1cccc2sc(-c3nnc(-c4ccccc4)o3)c(Cl)c12	-9%	-0.7%	/	/
COC(=O)c1ccc(CN2CCC(Oc3cccc(C(=O)N4CCCC4)c3)CC2)cc1	9%	-0.5%	/	/
O=S(=O)(Nc1cc2nc3ccccc3nc2n1Cc1ccccc1)c1ccc(Cl)cc1	?	?	?	-7
Cc1nc(N)[nH]c(=O)c1CCCNS(=O)(=O)c1ccc([N+](=O)[O-])cc1	-3%	-1.5%	/	/
Cc1ccc(C)c(N2CCN(C(=O)CCCN3C(=S)NC(C)(C)CC3C)CC2)c1 (stereo not drawn)	17%	4.5%	21%	3
CC1CCCCN1c1nc(-c2ccncc2)nc2ccccc12 (stereo not drawn)	0%	-5.5%	16%	0
Cn1c(COc2ccccc2)nnc1SCC(=O)Nc1ccc(N2CCOCC2)c(Cl)c1	-4%	4.2%	-8%	2
CCCOC(=O)/C(=C\C=C\c1ccccc1)NC(=O)c1ccccc1	-11%	1.8%	-2%	-6
Cc1ccc(S(=O)(=O)N/N=C\c2ccc3c(c2)OCO3)cc1	7%	-5.2%	-16%	2
O=C(CN1CCN(CC(=O)Nc2ccccc2Cc2ccccc2)CC1)Nc1ccccc1Cl	28%	-0.2%	4%	/
COCCCN(Cc1ccco1)C(=O)Cn1ncc2c(=O)oc3ccc(C)cc3c21	-8%	-0.8%	1%	-2
O=C(NCc1cccnc1)C(=O)NCC1OCCN1S(=O)(=O)c1ccccc1 (stereo not drawn)	1%	1.6%	-5%	4
COc1cc2c(cc1OC)CN(Cc1cccs1)CC2	-8%	?	-5%	0
COc1ccc(NC(=O)CNC(c2ccccc2)c2ccccc2)cc1Cl	-2%	2.0%	0%	/
CCN(CC)S(=O)(=O)c1ccc(O)c(C(=O)OCC(=O)Nc2cc(C)c(C)cc2[N+](=O)[O-])c1	3%	-3.1%	-2%	-12
Cc1ccc2c(c1)N(CC(=O)NC(C)CCc1ccccc1)C(=O)c1cccnc1O2 (stereo not drawn)	0%	1.6%	1%	/
COc1ccc(N2C(=O)/C(=C/c3ccc([N+](=O)[O-])cc3)C=C2c2ccccc2)cc1	-21%	-1.2%	-6%	0
CCOCC(=O)Nc1c(C(=O)Nc2ccc(OC)cc2OC)oc2ccccc12	1%	-1.6%	-16%	23
COc1ccc(C(CCN2CCOCC2)c2c(OC)cc(OC)c3ccc(=O)oc23)cc1 (stereo not drawn)	-13%	?	/	/
Cc1ccccc1OCC(=O)OCC(=O)N1CCCc2ccccc21	-8%	-1.5%	/	/
CC(=O)N(c1ccccc1Cl)S(=O)(=O)c1ccc(Cl)cc1	3%	0.9%	-3%	-1
O=C(CNC(=O)c1ccccc1)NCC(c1ccco1)N1CCCC1 (stereo not drawn)	10%	-1.9%	/	/
Nc1cc(S(=O)(=O)O)cc2ccc(S(=O)(=O)O)cc12	4%	-3.5%	/	/
CC1(C)CC(NC(=O)CC2CCCCC2)CC(C)(C)N1	-20%	-0.4%	-3%	8
O=C(NCc1ccc2c(c1)OCO2)c1ccc(N2C(=O)C3CCCCC3C2=O)cc1 (stereo not drawn)	-13%	-1.6%	1%	0
O=C(NC(=S)NCCc1ccccn1)c1ccco1	-4%	3.4%	-25%	7
Cc1cc(N2CCN(C)CC2)nc2ccc(NC(=O)c3ccc(Br)o3)cc12	-25%	2.6%	-50%	-8
Cc1ccc(C)c(S(=O)(=O)NC2CCSC2=O)c1 (stereo not drawn)	-8%	4.0%	/	/
Cc1ccc(C)c(S(=O)(=O)N2CCN(C(=O)Cn3c(C(F)(F)F)nc4ccccc43)CC2)c1	7%	1.3%	0%	-6
COc1ccc(C(=O)CSc2nnc(NC(=O)C3CC(=O)N(c4cccc(OC)c4)C3)s2)cc1 (stereo not drawn)	3%	-2.2%	-3%	0
COc1ccccc1N(C(=O)c1ccco1)C(C(=O)NC1CCCCC1)c1cc(OC)c(OC)c(OC)c1 (stereo not drawn)	-1%	-0.6%	3%	/
COc1ccc(-c2cc(C(=O)NCc3ccco3)c3ccccc3n2)cc1OC	-1%	-0.7%	/	/
CC1(C)CC(NC(=O)C2CCC(=O)N(C3CC3)C2)CC(C)(C)C1 (stereo not drawn)	-19%	-0.4%	-13%	/
Nc1ncc(Br)cc1S(=O)(=O)N1CCCCCC1	-6%	-0.1%	-1%	/
O=C(Nc1ccc(Cl)c([N+](=O)[O-])c1)c1ccco1	-14%	0.0%	-15%	/
Cc1csc(NC(=O)c2ccc3nc[nH]c3c2)n1	-5%	-2.4%	-17%	/
CC1CN(CCOc2ccccc2-c2ccccc2)CC(C)O1 (stereo not drawn)	-8%	1.1%	0%	4
O=C(CC(=O)Nc1ccccc1[N+](=O)[O-])Nc1ccccc1[N+](=O)[O-]	2%	0.9%	5%	/
COc1cc(OC)cc(-c2nnc(Nc3nc4c(F)cccc4s3)o2)c1	-15%	-0.9%	-1%	22
Cc1ccc(NC(=O)c2oc3ccccc3c2NC(=O)C2CCCO2)cc1C (stereo not drawn)	-2%	0.7%	-46%	-4
O=C(NCC(=O)N1CCN(C/C=C/c2ccccc2)CC1)c1ccc(OC(F)F)cc1	-2%	3.3%	/	/
Continued.
SMILES	Rango release inh	Rango complex inh	miR-21 FLuc	GLA inh pH 4.5
O=C(O)/C=C/c1cn(-c2ccccc2)nc1-c1cccc([N+](=O)[O-])c1	5%	-0.5%	-39%	-5
NC(=O)Cc1nc(-c2ccccc2)cs1	-9%	3.5%	-15%	4
CSc1nc(=S)n(-c2cc(C)ccc2C)c(C)c1C(C)=O	4%	1.3%	-4%	/
COc1ccc(-c2csc(NC(=O)Cc3ccccc3F)n2)c(OC)c1	0%	-0.8%	-15%	/
CCN(CC)S(=O)(=O)c1ccc(Cl)c(NC(=O)c2ccc(C#N)cc2)c1	17%	-5.2%	-13%	-10
Cc1cccc(C)c1NC(=S)NN1CCN(C)CC1	2%	1.5%	-6%	5
O=C(COc1ccc(Cl)cc1Br)NC1CC1	-4%	1.5%	/	/
Cc1cc(C)c(C#N)c(SCC(=O)Nc2c(C)n(C)n(-c3ccccc3)c2=O)n1	1%	0.4%	/	/
Cc1ccc(NC(=O)COc2ccccc2)c(NC(=O)c2ccccc2C)c1	8%	-3.3%	/	/
Cc1cc(C)c(C)c(S(=O)(=O)Nc2ccccc2N2CCOCC2)c1C	-1%	-1.9%	/	/
CC1(C)C(=O)Nc2ccccc2N1C(=O)COC(=O)COc1cccc(C(F)(F)F)c1	-15%	0.4%	/	/
C=CCOc1ccc2cccc(/C=N/NC(=O)c3cc4cc([N+](=O)[O-])ccc4s3)c2c1	0%	-0.2%	-7%	-1
O=C(CCC1CCCN(Cc2ccncc2)C1)NCc1ccc(F)c(F)c1 (stereo not drawn)	-8%	2.4%	0%	0
CCOC(=O)N1CCC(NC(=O)CCC(=O)N2CC(C)Oc3ccc(Cl)cc32)CC1 (stereo not drawn)	0%	1.8%	2%	1
CCN(CC)CCN(C(=O)C1=COCCO1)c1nc2cc3c(cc2s1)OCO3	4%	0.8%	-7%	6
Cc1cccc(C2c3[nH]c4ccccc4c3CCN2C(=O)c2ocnc2C)n1 (stereo not drawn)	-6%	-1.2%	0%	-18
O=C(Nc1cccc(S(=O)(=O)N2CCCCC2)c1)c1ccccn1	14%	-0.3%	-7%	2
NC(=O)COC(=O)C1c2ccccc2Oc2ccccc21	10%	0.2%	-1%	/
Cc1cc(C)cc(OCc2nc3ncc(Br)cc3[nH]2)c1	-8%	2.2%	/	/
CCN(CC)C(=O)Oc1cc(=O)n2c3c(cccc13)CCC2	12%	3.1%	-35%	10
COc1ccc(S(=O)(=O)N2CCCOC2CNC(=O)C(=O)NCc2cccnc2)cc1 (stereo not drawn)	5%	3.1%	0%	/
CCOC(=O)c1cc2occc2n1CC(=O)N1CCOCC1	4%	-1.2%	0%	-1
CCCCCC1C(=O)C[C@@H]2CCN3C(=O)CCC[C@H]1[C@H]23 (stereo partly drawn)	?	?	/	-8
CC1(C)CC(=O)C2=C(C1)N=C1c3ccccc3C(=O)C1C2c1ccc(Cl)cc1 (stereo not drawn)	0%	3.0%	21%	-18
Cc1ccc(/C(N)=N/OC(=O)CSc2ccccc2)cc1	2%	-3.3%	-51%	5
CCN(CC)C(=O)COc1ccc(CC(=O)O)cc1OC	8%	?	-1%	8
COc1cc(C(=O)Nc2cccc(S(=O)(=O)N3CCCC3)c2)cc(OC)c1C	19%	-2.8%	11%	-12
CCc1ccc(NC(=O)CSc2nc(=O)n(CCCN(C)C)c3c2CCC3)cc1	16%	-2.0%	/	/
CCOc1cccc(C2C(C(=O)c3ccc(C)o3)=C(O)C(=O)N2Cc2ccncc2)c1 (stereo not drawn)	8%	-1.8%	-12%	-4

An excerpt. The share of hits here may be higher or lower than overall.
